# Bead autofluor = compound fluorescence in toxin protease inhibitor counterscreen. compound autofluorescence counterscreen, microsphere flow cytometry; stronger effect = higher value. fluorescence intensity (test concentration not listed). 360,000 compounds, 3.1% hits. AID 624483;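 active = at least 3 SD above the mean of all compounds, about 16000 in these data; inconclusive = too few beads counted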;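 note: 100 nL of 1 mM stock went into each well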
# Mtb hypoxia inh = inhibitors of hypoxia-regulated fluorescent reporter in Mycobacterium tuberculosis; M. tuberculosis hypoxia-regulated fluorescent reporter, fluorescence; fluorescence inhibition, % (test concentration not listed); 300,000 compounds, 0.1% hits;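 active = 35 to 45% if threefold the growth effect, above 45% if 1.5-fold the growth effect; inactive = the rest, general growth blockers included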;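 note: wells of about 50 µL received 100 nL stock; 0% = vehicle wells and 100% = reference inhibitor wells; whole bacteria with a GFP reporter of the hypoxia response; strong numbers were not always called active; many hits fall short of the cut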
# BJeLR lethal = kills HRASV12-expressing BJeLR cells | BJeLR (HRASV12) viability, CellTiter-Glo ATP luminescence, 48 h; reference of the scale not given here | inhibition, % (concentration not given with the values) | 300,000 compounds, 0.17% hits | AID 1554;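 active = replicate mean above 50%; inconclusive = above 50% but judged a plate artefact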;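 note: 50 nL library stock added to about 25 µL; numbers are from one replicate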
# ugtP null kill = compounds lethal to S. aureus RN4220 ugtP deletion mutant. growth inhibition, % (no concentration beside the values). 330,000 compounds, 0.54% hits. OD600 growth, 16 h; some inactives read as strong as hits;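 active = z-score under -3 and OD600 up to 0.15 on both plates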;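 note: plate controls were untreated wells for no effect and antibiotic for full effect; wells of about 80 µL received 100 nL stock; the first replicate is given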
# Sa RN4220 lethal = kills Staphylococcus aureus RN4220. S. aureus RN4220 growth, OD600, 16 h. inhibition, % (no concentration beside the values). 330,000 compounds, 0.33% hits;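 active = z-score of -3 or lower and OD600 up to 0.18 on both plates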;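 note: plate controls were untreated cells for no effect and reference antibiotic for full effect; stock transfer was 100 nL into about 80 µL; one replicate is shown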
# PrP 5UTR inh = inhibition of PrP 5' UTR reporter expression; inhibition, % (concentration not given with the values); 340,000 compounds, 0.35% hits; AID 488862; cell-based PrP 5' UTR mRNA reporter, plate reader;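 active = every replicate at 50% or more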;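 note: 0 = median of the neutral control wells; tested in H4 reporter cells; numbers are from one replicate; inactives centre near -14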
# Mtb hypoxia inh growth = recorded beside Mtb hypoxia inh, whose call it bears; growth inhibition, %; measured here: M. tuberculosis growth (absorbance);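 0% = vehicle and 100% = reference antibiotic; read after six days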
# The depositor's hits bear a star; ? = inconclusive; nt = no result given.
SMILES,Bead autofluor,Mtb hypoxia inh,Mtb hypoxia inh growth,BJeLR lethal,ugtP null kill,Sa RN4220 lethal,PrP 5UTR inh
COc1ccc(C(=O)Oc2ccc(=O)n(-c3ccccc3)n2)cc1,?,0.9,12.6,13.9,-7.0,4.3,-24.8
COc1ccc(CNC(=O)CCC(=O)N2CCN(S(=O)(=O)c3cc([N+](=O)[O-])ccc3C)CC2)cc1,5023,-5.6,4.9,nt,4.6,0.8,-6.1
Cc1nn(-c2ccccc2)c(Cl)c1C(=O)NCCCCNC(=O)c1c(C)nn(-c2ccccc2)c1Cl,2639,4.5,10.4,-13.7,6.5,-4.6,74.4*
COc1ccc(-c2nc(CSCC(=O)NCCCN3CCCC3=O)c(C)o2)cc1OC,5335,14.3,9.4,7.2,8.7,4.3,-21.2
COCCCNC(=O)/C(C#N)=C/c1c(N2CCN(c3ccccc3)CC2)nc2c(C)cccn2c1=O,4068,6.2,3.6,-2.5,-6.8,0.2,-12.4
O=C(NCC1CCN(Cc2ccc(Cl)cc2)CC1)C1CCCN(c2ncnc3c2nc2n3CCCCC2)C1 (configuration not stated),5282,0.4,19.7,12.5,0.0,2.1,7.4
CCOC(=O)c1cccc(N2C(=O)C3C4C=CC(CC4)C3C2=O)c1 (configuration not stated),3339,3.6,-9.2,3.8,3.8,5.0,2.9
CN1CCN(c2ccc(S(=O)(=O)N3CCCCC3)cc2NC(=O)/C=C/c2ccc(OC(F)F)cc2)CC1,4236,3.1,3.9,-3.2,1.3,1.2,-13.9
CCCOc1ccc(-c2cc(C(=O)NCC3CCCO3)c3ccccc3n2)cc1 (configuration not stated),2576,nt,nt,0.0,nt,nt,-19.8
COCCn1c(N)c(C(=O)NCC2CCCO2)c2nc3ccccc3nc21 (configuration not stated),2861,nt,nt,-4.3,4.0,1.0,-37.4
COc1cc(/C=N/S(=O)(=O)c2ccccc2)cc(OC)c1O,6008,nt,nt,-8.1,nt,nt,-3.4
CC(C)CC(=O)Nc1ccc2c(c1)nc(CCN1CCOCC1)n2C,3840,15.0,8.6,-9.7,8.9,2.8,-16.5
N#CC(C#N)=c1ccc2c(c1)N1C3=C(CCCC3)CC3CCCCC31N=2 (configuration not stated),1753,nt,nt,18.6,91.7*,90.9*,-3.4
Cc1ccc(S(=O)(=O)N(C)C)cc1NC(=O)COC(=O)CCC1CCCCC1,?,3.6,1.5,2.1,3.9,1.3,-14.1
Cc1ccc(CNC(=O)C2CCN(S(=O)(=O)c3c(C)noc3C)CC2)cc1,2618,8.7,7.2,-9.5,4.3,0.0,-25.1
CCOC(=O)c1c(N/N=C/c2ccncc2)n[nH]c1C,1953,nt,nt,11.5,nt,nt,-37.0
O=C(N/N=C/c1cc([N+](=O)[O-])ccc1N1CCNCC1)c1ccc([N+](=O)[O-])cc1,8981,nt,nt,-9.1,nt,nt,-3.5
CCCS(=O)(=O)c1nc(S(=O)(=O)c2ccc(C)cc2)c(N2CCC(C)CC2)s1,6305,-5.3,-0.4,1.9,-1.3,-0.7,-19.1
Cc1ccc(-c2nnn(CC(=O)N(CCO)C(C(=O)NC(C)(C)C)c3ccncc3)n2)cc1 (configuration not stated),10366,2.0,1.9,15.3,4.3,-0.6,-14.8
COc1ccc(N2C(=O)CC(c3ccc([N+](=O)[O-])cc3)C2=O)cc1 (configuration not stated),3617,3.2,2.1,-9.5,-0.3,-2.0,5.6
O=C(NC12CC3CC(CC(C3)C1)C2)c1ccc(-c2ccc(Br)cc2)o1,1985,-5.4,4.2,-7.8,-39.3,-13.5,-88.0
CC(=O)SC1CC2=CC(=O)CC[C@]2(C)C2CC[C@@]3(C)C(CC[C@@]34CCC(=O)O4)C12 (some centres not stated),nt,22.4,15.1,nt,5.4,7.1,nt
CC(=O)Nc1cccc(NC(=O)COc2nncc3ccccc23)c1,2686,nt,nt,12.3,nt,nt,-9.5
O=C(Cn1cccn1)N1CCCC(N2CCN(c3ccccc3F)CC2)C1 (configuration not stated),5702,nt,nt,-19.7,nt,nt,-20.0
S=C(c1cn(CCOc2ccccc2)c2ccccc12)N1CCCC1,7281,nt,nt,5.5,5.1,3.5,-16.3

# (more compounds)
SMILES,Bead autofluor,Mtb hypoxia inh,Mtb hypoxia inh growth,BJeLR lethal,ugtP null kill,Sa RN4220 lethal,PrP 5UTR inh
N#CCSc1nnc2ccc3ccccc3n12,2174,nt,nt,-3.9,6.4,4.1,-0.3
O=C(CCC1CCCN(C(=O)C2CCCC2)C1)NCc1ccc(F)c(F)c1 (configuration not stated),2276,4.7,2.6,7.7,3.5,5.7,-30.0
O=S(=O)(NCCN1CCOCC1)c1ccc(Cl)s1,4682,11.3,1.0,-0.1,-1.0,1.7,-17.4
COC(=O)c1ccc(C2NC(=S)N(c3ccccc3)C(C)=C2C(=O)Nc2ccccc2OC)cc1 (configuration not stated),?,0.0,-5.2,-0.2,1.9,-0.5,-0.1
CCNc1nc(NCC)n2c(SCC(=O)Nc3ccc(Br)cc3F)nnc2n1,5803,8.3,9.3,8.4,1.5,18.3,-27.7
CC1(C)C(CSc2nc3ccccc3[nH]2)C1(Cl)Cl (configuration not stated),2269,-7.4,-3.3,7.1,1.9,-8.3,-35.2
COc1ccc(-c2cc3nc(C4CCN(C(=O)OC(C)(C)C)CC4)c(C(=O)O)cn3n2)cc1,22638*,-2.3,1.9,6.9,-15.5,9.8,-14.1
COc1ccccc1NC(=O)COc1ccc(/C=N/NC(=O)c2cccnc2)cc1,5625,nt,nt,6.8,nt,nt,-27.9
C=CCNC(=O)C1CC(=O)N(c2ccc(OCc3ccc(F)cc3)cc2)C1 (configuration not stated),4733,-2.0,11.4,-7.5,0.1,6.4,-61.9
COc1ccc(S(=O)(=O)N(CC(=O)NCCCN(C)C)c2ccc(C)cc2)cc1OC,3240,9.5,9.2,-2.7,15.5,5.7,-7.5
Cc1cc(NC(=O)CSc2cn(C)c3ccccc23)no1,4282,3.7,9.4,2.4,17.8,21.2,-18.4
OC1(C(F)(F)F)CC(c2ccc3ccccc3c2)=NO1 (configuration not stated),5789,10.1,6.5,-5.2,-7.7,10.6,-5.8
CC(C)c1ccc2c(c1)C(=O)NC(C)(C)C2,4822,nt,nt,-2.5,1.7,4.8,1.6
CC1(C)C2(C#N)C(=O)NC(=O)C12C#N (configuration not stated),3401,11.8,-2.6,nt,-2.4,-1.0,-25.9
O=C(C(NS(=O)(=O)c1cccc2nsnc12)c1ccccc1)N1CCN(c2ccccc2)CC1 (configuration not stated),6211,-1.5,4.7,-2.8,-4.0,-5.2,-22.9
Cc1cc2cc(CN(Cc3cccs3)C(=S)NCC3CCCO3)c(=O)[nH]c2cc1C (configuration not stated),2264,6.2,4.0,-10.5,-17.1,5.2,-12.1
Cc1cc(C)n2nc(S(=O)(=O)NC(C)(C)C)nc2n1,4748,10.2,-1.0,-7.0,1.8,4.4,-23.6
CCOc1ccc(N2C(=O)CC(NCCNc3ccc([N+](=O)[O-])cn3)C2=O)cc1 (configuration not stated),2261,-3.3,8.7,0.9,2.8,-0.8,-1.7
Cc1ccc2[nH]c(CNC(=O)c3ccc(F)cc3)cc2c1,3926,10.0,5.1,-9.0,-3.5,-1.5,-18.8
CC(C)Sc1nc2ccccc2n1CC(=O)O,3607,-0.6,1.6,-3.0,0.2,0.7,-23.6
c1ccc(CNc2ncnc3c2cnn3-c2ccccc2)cc1,16180*,-1.2,2.0,-0.2,8.2,2.2,-63.4
Nc1nc(CSc2nc3ccccc3s2)nc(N2CCCCC2)n1,3500,16.5,4.7,-5.7,3.2,-4.2,-12.2
Cc1ccnc(NC(=O)CCC(=O)N(CC(=O)NC2CCCCC2)C2CCCC2)c1,4659,5.6,6.4,-7.0,8.1,4.0,-4.5
C=C(C)COc1ccc2c(C)c(C)c(=O)oc2c1OCC(=C)C,2933,13.8,12.2,4.4,-10.1,-5.9,-7.5
COc1ccc(/C=C2/SC(=S)N(CCCC(=O)Nc3cccc(O)c3)C2=O)cc1,4076,1.3,-8.8,7.3,15.0,29.5,9.9

# Only ugtP null kill and Bead autofluor, for 2 of the compounds above:
Structure	ugtP null kill	Bead autofluor
O=C(C(NS(=O)(=O)c1cccc2nsnc12)c1ccccc1)N1CCN(c2ccccc2)CC1 (configuration not stated)	-4.0	6211
Cc1cc2cc(CN(Cc3cccs3)C(=S)NCC3CCCO3)c(=O)[nH]c2cc1C (configuration not stated)	-17.1	2264

# Remaining list, next part.
SMILES,Bead autofluor,Mtb hypoxia inh,Mtb hypoxia inh growth,BJeLR lethal,ugtP null kill,Sa RN4220 lethal,PrP 5UTR inh
CC(=O)N1CCN(Cc2nc3cc(NC(=O)NC4CCCCC4)ccc3n2C)CC1,3884,9.2,5.7,-4.5,2.4,1.0,-9.2
COc1ccc2oc(C(=O)OCc3nnc(-c4ccccc4)o3)c(C)c2c1,4509,2.1,0.5,18.3,-2.7,1.1,-32.6
O=C(NC1c2ccccc2-c2ccccc21)N1CCCCC1,5887,1.7,7.0,1.1,1.6,4.7,-19.8
S=c1nccc(-c2ccc(Cl)cc2)[nH]1,3681,16.7,6.0,-3.4,73.9,11.4,nt
Cc1cc(Cl)ccc1C(=O)C1CCCN(C(=O)c2ccoc2)C1 (configuration not stated),4192,20.8,10.3,-0.7,3.9,-1.0,8.2
O=C(Cn1c(=O)oc2ccccc21)N1CCN(c2ccc(N3CCOCC3)nn2)CC1,5623,2.3,1.9,9.9,-7.0,6.9,-13.8

# Eleven compounds from above, ordered by SMILES length, lowest first:
SMILES,Bead autofluor,Mtb hypoxia inh,Mtb hypoxia inh growth,BJeLR lethal,ugtP null kill,Sa RN4220 lethal,PrP 5UTR inh
CC(C)Sc1nc2ccccc2n1CC(=O)O,3607,-0.6,1.6,-3.0,0.2,0.7,-23.6
S=c1nccc(-c2ccc(Cl)cc2)[nH]1,3681,16.7,6.0,-3.4,73.9,11.4,nt
O=C(NC1c2ccccc2-c2ccccc21)N1CCCCC1,5887,1.7,7.0,1.1,1.6,4.7,-19.8
Nc1nc(CSc2nc3ccccc3s2)nc(N2CCCCC2)n1,3500,16.5,4.7,-5.7,3.2,-4.2,-12.2
Cc1cc(C)n2nc(S(=O)(=O)NC(C)(C)C)nc2n1,4748,10.2,-1.0,-7.0,1.8,4.4,-23.6
Cc1cc(Cl)ccc1C(=O)C1CCCN(C(=O)c2ccoc2)C1 (configuration not stated),4192,20.8,10.3,-0.7,3.9,-1.0,8.2
COc1ccc2oc(C(=O)OCc3nnc(-c4ccccc4)o3)c(C)c2c1,4509,2.1,0.5,18.3,-2.7,1.1,-32.6
CC(=O)N1CCN(Cc2nc3cc(NC(=O)NC4CCCCC4)ccc3n2C)CC1,3884,9.2,5.7,-4.5,2.4,1.0,-9.2
Cc1ccnc(NC(=O)CCC(=O)N(CC(=O)NC2CCCCC2)C2CCCC2)c1,4659,5.6,6.4,-7.0,8.1,4.0,-4.5
O=C(Cn1c(=O)oc2ccccc21)N1CCN(c2ccc(N3CCOCC3)nn2)CC1,5623,2.3,1.9,9.9,-7.0,6.9,-13.8
CCOc1ccc(N2C(=O)CC(NCCNc3ccc([N+](=O)[O-])cn3)C2=O)cc1 (configuration not stated),2261,-3.3,8.7,0.9,2.8,-0.8,-1.7

# Outcome played no part in choosing rows. About 4.1% of those tested had a hit in this group.
